From PubChem BioAssay
Mtb hypoxia rep: PubChem AID 1159583. M. tuberculosis hypoxia-regulated fluorescent reporter, fluorescence. fluorescence inhibition, % (no concentration beside the values). actives 0.1% (n = 300,000);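 active = 35 to 45% if threefold the growth effect, above 45% if 1.5-fold the growth effect; inactive = the rest, general growth blockers included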;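 also: wells of about 50 µL received 100 nL stock; 0% = vehicle wells and 100% = reference inhibitor wells; whole bacteria with a GFP reporter of the hypoxia response; strong numbers were not always called active; many hits fall short of the cut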
Sa RN4220 lethal: growth inhibition of S. aureus RN4220, primary screen, OD600; inhibition, % (concentration not given with the values); actives 0.33% (n = 330,000); 16 h; AID 1259311, 2017;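 active = z-score of -3 or lower and OD600 up to 0.18 on both plates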;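 also: plate controls were untreated cells for no effect and reference antibiotic for full effect; stock transfer was 100 nL into about 80 µL; one replicate is shown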
PrP UTR inh: inhibition of PrP 5' UTR reporter expression | inhibition, % (test concentration not listed) | actives 0.35% (n = 340,000) | cell-based PrP 5' UTR mRNA reporter, plate reader | AID 488862, 2010;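 active = every replicate at 50% or more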;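 also: 0 = median of the neutral control wells; tested in H4 reporter cells; numbers are from one replicate; inactives centre near -14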
BJeLR viability: MLPCN primary cell-based screen for lethality selective to Ras in HRASV12 cells. BJeLR (HRASV12) viability, CellTiter-Glo ATP luminescence, 48 h; reference of the scale not given here. inhibition, % (concentration not given with the values). actives 0.17% (n = 300,000). AID 1554, 2009;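 active = replicate mean above 50%; inconclusive = above 50% but judged a plate artefact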;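 also: 50 nL library stock added to about 25 µL; numbers are from one replicate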
Bead autofluor: compound fluorescence in toxin protease inhibitor counterscreen; compound autofluorescence counterscreen, microsphere flow cytometry; active compounds read high; fluorescence intensity (no concentration beside the values); actives 3.1% (n = 360,000);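 active = at least 3 SD above the mean of all compounds, about 16000 in these data; inconclusive = too few beads counted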;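 also: 100 nL of 1 mM stock went into each well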
Sa ugtP lethal: growth inhibition of ugtP-null S. aureus, primary screen, RN4220 ugtP deletion, OD600. 16 h; some inactives read as strong as hits. growth inhibition, % (no concentration beside the values). actives 0.54% (n = 330,000);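 active = z-score under -3 and OD600 up to 0.15 on both plates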;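 also: plate controls were untreated wells for no effect and antibiotic for full effect; wells of about 80 µL received 100 nL stock; the first replicate is given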
Mtb hypoxia rep growth: second read-out of Mtb hypoxia rep, no call of its own (marks repeat the call); growth inhibition, %; measured here: M. tuberculosis growth (absorbance);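 0% = vehicle and 100% = reference antibiotic; read after six days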
Active calls of the source: *; ? = inconclusive; · = no result given.

structure	Mtb hypoxia rep	Mtb hypoxia rep growth	Sa RN4220 lethal	PrP UTR inh	BJeLR viability	Bead autofluor	Sa ugtP lethal
CC(=O)c1cccc(NC(=O)CSCc2ccc(Br)cc2)c1	2.6	0.3	0.9	-18.2	-0.1	10073	-16.5
Cc1ccc(-c2csc(NC(=O)CCCc3cccs3)n2)cc1	-2.7	-3.1	0.9	-32.7	-2.2	3853	6.4
CN(C)S(=O)(=O)N1CCC(Oc2ccc(C(=O)NC3CCCCC3)cc2)CC1	10.1	10.7	0.9	-17.8	5.8	4386	3.7
Cc1nc2ncnn2c(C)c1Cc1ccc(Cl)cc1F	6.2	3.3	6.0	-25.4	-2.8	4524	14.5
Cc1ncc(CO)c2c1Oc1nc(-c3ccccc3)nc(SCC(=O)Nc3cccc(O)c3)c1C2	-4.6	1.4	5.6	-15.2	4.4	6452	-21.1
CCOC(=O)c1cc(CC)sc1NC(=O)COC(=O)c1ccccn1	1.6	0.5	0.8	-8.3	9.1	6607	0.7
CN(Cc1ccon1)C(=O)CC1C(=O)NCCN1Cc1ccc(F)c(F)c1 (centres undefined)	1.3	3.9	0.1	-14.0	6.4	4283	2.7
Cc1cccc(NCCC(=O)c2ccc(Br)cc2)c1	8.3	9.8	3.5	-31.2	-5.0	10652	17.5
CCOc1ccc(S(=O)(=O)N2CCCCC2)cc1NC(=O)CN1CCCC1c1cccs1 (centres undefined)	-0.6	4.8	-1.5	-13.9	·	10019	-4.0
CC1(C)CC(=O)C2=C(C1)Nc1ccccc1NC2c1ccc2c(c1)OCO2 (centres undefined)	-19.5	11.1	-10.2	-11.3	0.2	9021	-15.0
CN(CC(=O)N1CCCC1)S(=O)(=O)c1ccc2ccccc2c1	·	·	·	-16.1	0.6	5299	·
COCCN(C(=O)Cc1ccc(S(=O)(=O)N2CCOCC2)s1)c1c(N)n(CC(C)C)c(=O)[nH]c1=O	5.1	-1.7	6.7	-14.1	·	3888	1.2
CC1=CC(C)(C)N2C(=O)C3(C(C#N)=C(N)OC4=C3C(=O)CC(C)(C)C4)c3cccc1c32 (centres undefined)	-60.1	19.0	39.4	·	10.2	·	-10.5
CCCCCCC(C)(C)c1ccc(C2CC(O)CCC2CCCO)c(O)c1 (centres undefined)	8.8	8.2	-6.8	·	·	·	-2.3
CCN(CC)CCCNC(=O)c1cc(-c2cccc(Cl)c2)on1	3.1	5.3	2.7	-15.8	-4.2	22005*	10.1

Record cards (already shown). Values in the order: Mtb hypoxia rep, Mtb hypoxia rep growth, Sa RN4220 lethal, PrP UTR inh, BJeLR viability, Bead autofluor, Sa ugtP lethal
CCCCCCC(C)(C)c1ccc(C2CC(O)CCC2CCCO)c(O)c1 (centres undefined) is entered as 8.8, 8.2, -6.8, ·, ·, ·, -2.3
CC1=CC(C)(C)N2C(=O)C3(C(C#N)=C(N)OC4=C3C(=O)CC(C)(C)C4)c3cccc1c32 (centres undefined) is entered as -60.1, 19.0, 39.4, ·, 10.2, ·, -10.5
CN(Cc1ccon1)C(=O)CC1C(=O)NCCN1Cc1ccc(F)c(F)c1 (centres undefined) is entered as 1.3, 3.9, 0.1, -14.0, 6.4, 4283, 2.7
CCOc1ccc(S(=O)(=O)N2CCCCC2)cc1NC(=O)CN1CCCC1c1cccs1 (centres undefined) is entered as -0.6, 4.8, -1.5, -13.9, ·, 10019, -4.0

More structures.
structure	Mtb hypoxia rep	Mtb hypoxia rep growth	Sa RN4220 lethal	PrP UTR inh	BJeLR viability	Bead autofluor	Sa ugtP lethal
CCn1c(SCC(=O)Nc2sc3c(c2C(N)=O)CCC(C)C3)nnc1-c1ccco1 (centres undefined)	3.9	2.6	6.0	-12.6	-21.6	2337	-5.7
N#CCSc1nnc(SCC#N)s1	18.7	3.5	9.5	-29.4	8.0	4309	9.4
O=C(NN=Cc1cccs1)c1cccc(NC(=O)c2ccccc2Cl)c1	13.3	11.5	-0.5	·	·	·	10.0
Nc1c(N)c2ccccc2oc1=O	13.0	4.2	3.6	-19.5	0.4	8529	-3.7
COc1nonc1NC(=O)CSc1nc2ccccc2[nH]1	·	·	-0.6	-11.6	8.0	2733	-7.8
O=C(Nc1ccc(Cc2ccncc2)cc1)C1CC1	14.3	15.9	0.6	-10.0	-6.2	8301	1.4
COc1cccc(CN2CCN(C(=O)c3cc(-c4cccnc4)nc4ccc(C)cc34)CC2)c1	-0.2	2.0	1.0	-5.7	-8.1	6671	1.4
Cc1ccc(C(=O)Cn2c(=N)n(N)c3ccccc32)cc1	0.2	-1.5	3.5	-37.1	8.6	4982	2.1
O=C1CCC(C(=O)Nc2cc(C(F)(F)F)ccc2-n2cncn2)=NN1	-6.3	-4.6	-4.7	-22.0	3.3	·	-6.4
CC(/C=C/c1ccccc1)=N/NC(=O)c1nc2nc(C)cc(C)n2n1	·	·	·	-32.4	-0.3	4307	·
O=c1[nH]c(=S)[nH]c2c1C(c1ccc(Br)cc1)c1c([nH]c(=S)[nH]c1=O)O2	-2.7	-3.5	4.5	·	-2.5	3543	14.0
CC1=C(C(=O)Nc2ccccc2F)C(c2ccsc2)C2=C(CC(c3ccccc3)CC2=O)N1 (centres undefined)	·	·	-8.7	-3.1	-9.3	3454	6.2
CC(=O)c1ccc(S(=O)(=O)N(CC(=O)NC2CC2)Cc2ccc(F)cc2)cc1	-8.9	0.5	-0.5	4.9	·	4713	0.4
CC(=NNC(=O)CCCC(=O)O)c1c(-c2ccccc2)c2cc(Cl)ccc2[nH]c1=O	13.4	0.7	3.4	·	·	·	-0.2
Cc1cc(C)nc(NC(=O)C=Cc2ccc3c(c2)OCO3)c1	5.0	3.8	-2.2	·	·	·	-1.2
CCc1cc(CNC(=O)c2ccc(OC)c(OC3CCN(C(C)C)CC3)c2)on1	-9.8	-2.9	-3.0	-21.7	-5.9	6252	-5.2
Cc1ccc(S(=O)(=O)NCCCCCC(=O)Nc2nccs2)cc1	6.1	6.1	21.8	5.5	7.8	2430	16.3
O=C(O)c1ccc(Cn2cc(/C=C\[N+](=O)[O-])c3ccccc32)o1	8.9	-1.5	2.7	-12.7	-0.5	3040	10.8
COc1cccc(-c2nc3n(n2)C(c2ccc4c(c2)OCO4)C(C(N)=O)=C(C)N3)c1 (centres undefined)	0.8	-2.4	4.5	-32.2	7.7	6823	7.1
CN1CC(=O)N(CC(=O)NCCc2ccc(F)cc2)c2ccccc2C1=O	·	·	1.8	-5.0	·	4605	2.5
NNC(=O)c1cccnc1Oc1ccccc1	7.9	9.2	1.1	-14.1	9.5	6237	3.4
CC(C)Oc1ccc(S(=O)(=O)N2CCOCC2)cc1NC(=O)C1CCCC1	5.8	3.9	4.0	-31.8	·	8792	7.1
Oc1ccc(Br)cc1-c1nc2cnccn2c1NC1CCCCC1	10.4	5.6	-10.2	-17.4	-6.8	8231	-17.5
Cc1c(C(=O)NCc2ccccc2)cnn1-c1ccccc1	3.6	6.0	4.2	-26.2	1.8	3002	2.7
Cc1cccc(N=Cc2nc(-c3ccccc3Br)oc2O)n1	2.4	0.9	2.0	·	·	·	1.1
COCCOC(=O)c1[nH]c2c(c1C)C(=O)CC(c1ccc(OC)cc1)C2 (centres undefined)	2.5	3.7	-2.8	-28.3	2.7	3618	9.3
CCN(CC)c1ccc(N=Cc2ccccc2[N+](=O)[O-])cc1	8.9	4.2	0.5	-29.7	-8.1	9715	6.2
CSCCC(NC(=O)OC(C)(C)C)C(=O)NC(CC(C)C)C(N)=O (centres undefined)	·	·	-0.8	-5.7	-0.7	2073	-0.3
CNc1ccccc1NC(=O)C1CCCN1C(=O)OCc1ccccc1 (centres undefined)	9.7	2.4	4.4	-33.4	14.8	6083	11.2
CCCC12CN3CC(C)(CN(C1)C3c1ccc(OC)cc1)C2=O (centres undefined)	4.6	13.6	-6.3	-41.0	-5.0	·	-2.2
Cn1c(N)c(C(=O)Nc2ccc3ccccc3c2)sc1=S	-0.6	0.1	0.3	-135.4	-7.6	21788*	-3.8
CCC(C)(C#CCN1CCCCC1)OC(C)=O (centres undefined)	2.9	-2.0	6.2	-14.8	4.2	4640	7.8
CC1(C)NC(=O)N(CC(=O)OCC(=O)c2ccc(F)cc2)C1=O	·	·	·	-9.8	-3.0	?	·
COc1ccc(-c2nn(CCC#N)cc2C(=O)Nc2cccc(C(=O)O)c2)cc1OC	-4.1	4.0	3.0	-15.5	8.4	4033	-0.2
Cc1cccc(C)c1N1CCN(C(=O)Nc2ccc3c(c2)OCCO3)CC1	1.3	5.3	-1.9	-36.6	8.1	·	7.6
COc1cccc(NC(=O)NNC(=O)COc2ccc3ccccc3c2)c1	-0.2	1.5	-3.4	-5.2	10.5	4095	-6.6
COCc1ccc(C(=O)N2CCc3c([nH]c4ccccc34)C2c2ccccn2)s1 (centres undefined)	3.9	5.2	3.4	-20.0	14.7	4053	2.4
COc1cccc(C(=O)Nc2ccc(S(=O)(=O)Nc3onc(C)c3C)cc2)c1	9.4	19.8	4.3	-8.8	0.9	10248	-1.4
CC(C)C(OC(=O)CN1C(=O)c2ccccc2C1=O)C(=O)NC1CCCC1 (centres undefined)	11.8	-1.3	2.2	-15.4	-0.4	3746	1.9
COC1=C(Nc2ccccc2OC)C(=O)c2ccccc2C1=O	-9.4	5.5	28.2	-23.4	4.5	·	6.7
Cc1ccccc1-n1c(SCc2c(C)noc2C)nnc1-c1c[nH]c2ccccc12	·	·	4.5	-23.3	7.3	4367	-0.3
O=C(c1ccc(Cl)cc1)C1CCN(C(=O)C2CC2)CC1	23.5	19.0	4.4	-5.9	4.6	3790	5.2
CCOC(=O)c1sc(NC(=O)CSc2nnc(C(C)C)n2C)nc1C	8.9	8.7	4.1	-6.8	-2.4	3817	3.3
COc1cccc(CC(=O)Nc2ccc3nc(C)sc3c2)c1	16.0	6.5	3.6	-15.4	2.2	2411	13.0
Cc1cccc(N(CC(=O)NCC2CCCO2)C(=O)CCC(=O)Nc2nccs2)c1 (centres undefined)	11.4	10.0	1.4	-12.3	-6.9	5222	1.0
O=C(Nc1ccccc1N1CCCCC1)c1ncoc1-c1ccc(F)cc1	·	·	2.7	-16.5	-2.3	4457	6.3
O=C1NC(=O)c2cc([N+](=O)[O-])cc3cccc1c23	-2.1	-7.3	-0.6	5.6	-1.0	3049	5.9
Cc1cccc2c1ncc1c(=O)n(-c3ccccc3)[nH]c12	2.3	1.8	3.1	-44.0	0.6	4755	9.2
CC(C)(C)NC(=O)CN(C(=O)CNS(=O)(=O)c1ccccc1)c1ccc2c(c1)OCCO2	5.6	0.6	6.5	-29.8	2.4	5780	-2.6
CN1/C(=C/C2CC(=O)N(c3cccc4ccccc34)C2=O)C(C)(C)c2ccccc21 (centres undefined)	3.3	7.9	-0.3	-28.8	-11.5	20679*	4.3
CCOC(=O)C1CCN(c2ncnc3c2c(-c2ccccc2)cn3-c2ccc(C)cc2)CC1	-1.8	6.8	2.0	-4.8	0.2	3930	-7.3
CN(C)C(=O)CCC(=O)N1CCCC(C(=O)c2ccc(C(F)(F)F)cc2)C1 (centres undefined)	-10.3	0.5	-1.9	-13.3	-13.4	3969	-3.4
CC1CCN(S(=O)(=O)CCNC(=O)c2ccc(F)cc2)CC1	-6.5	8.3	5.0	-17.4	0.9	?	1.6
Cc1cc[n+](-c2[nH]c(=O)sc2/C=N/NC([S-])=Nc2ccccc2)cc1	·	·	·	-4.1	-16.8	1760	·
COC(=O)c1cc2sc(Cl)cc2n1Cc1nc(-c2ccccc2)oc1C	10.8	5.7	-5.3	-6.3	0.6	4470	6.3
COc1cccc(N/C=C/C(=O)c2ccc(Br)cc2)c1	·	·	-5.1	-132.4	7.2	2559	-3.2
C[C@H]1CC[C@]2(O[C@@H](CCO)C[C@H](O)[C@H]2O)O1	·	·	·	-21.0	2.7	4087	·
COc1ccc(-c2cc(C(=O)N3CCOCC3)c3cc(C)ccc3n2)cc1	7.5	9.3	-1.6	-2.8	-3.7	3947	-2.5
Fc1ccc(CSc2nnc(Cc3sc(-c4ccccc4)nc3-c3ccccc3)o2)cc1	·	·	-0.6	-22.6	0.4	2587	4.2
COc1ccc(/C=C/c2ccncc2)cc1OC	-2.3	-2.3	6.5	-15.3	-7.8	2953	10.3
